# Assay outcomes (PubChem BioAssay)
# A647 autofl – compound autofluorescence in A647 spectral region; Compound fluorescence, A647 channel (570/671 nm), Tris buffer; max dye-equivalent concentration, M; 59,000 tested, under 10 active; AID 592; active means above 1 µM dye equivalent; inconclusive means 0.1 to 1 µM; inactive means 0.1 µM or less;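 note: values scaled relative to a standard on each plate; highest value over a series up to 38 µM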
#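 Buffer was dispensed, compounds and Alexa 647 standards were pin-transferred, and plates sat 15 min at room temperature. Intensity at 570/671 nm was then converted to dye-equivalent concentration using the plate's A647 standard curve.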
# Resorufin fluor – resorufin region autofluorescence. Compound fluorescence, resorufin region 547/598 nm, buffer; stronger effect = higher value. max dye-equivalent concentration, M. 59,000 tested, 0.04% active. AID 588; active = above 10 nM dye equivalent; inconclusive = 1 to 10 nM; inactive = 1 nM or less; a few of its hits are not listed in these tables; note: highest value over a series up to 38 µM
#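 Dye-equivalent concentration values derive from comparing each well's 547/598 nm fluorescence against resorufin standards included on every plate. Incubation was 15 min at room temperature in 100 mM Tris, pH 8.0.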
# AID923 – qHTS Assay for Allosteric/Competitive Inhibitors of Caspase-1: Spectroscopic Profiling in AFC Spectral Region; Potency, µM (top dose mostly 57.5 µM), without a hit: at the highest dose fluorescence increase, actives largely listed as activators; compound fluorescence, AFC spectral region (405/520 nm); almost no hit is shown here; 75,000 tested, 1.1% active; active = well fitted activation curve with a large enough effect; inconclusive = small, poorly fitted or top-dose-only effect;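 note: potency is the fitted concentration of half-maximal effect; 0% is about no effect; scaled to a free AFC standard on each plate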
#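 Compound autofluorescence profiled at 405 nm ex/520 nm em during kinetic caspase 1 run (50 nM enzyme, 5 uM Ac-WEHD-AFC, HEPES pH 7.5, 10 mM DTT). Titration up to 57 uM; baseline from regression intercept, normalized to AFC standard curve.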
# A488 autofl – A488 region autofluorescence; compound autofluorescence, A488 spectral region, dye equivalency; stronger effect = higher value; max dye equivalency, M; 59,000 tested, 0.1% active; AID 591; active = above 10 nM dye equivalent; inconclusive = 1 to 10 nM; inactive = 1 nM or less; about half of its hits are not listed in these tables;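 note: highest value over a series up to 38 µM; compound alone in buffer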
#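 Readout is A488 dye-equivalent concentration, calibrated by a per-plate six-point Alexa 488 series. Compounds in 100 mM Tris buffer pH 8.0 were incubated 15 min at room temperature. Plates were imaged using 480 nm excitation/540 nm emission filters.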
# TSHR agonist – agonists of human thyroid stimulating hormone receptor; HEK293-CNG-TSHR cells (CNG channel as cAMP sensor), membrane potential dye, cAMP; P16473; Potency, µM (titrated, usually from 57.1 µM), for the others: at the highest dose activation, actives largely listed as activators; 73,000 tested, 0.48% active; active = well fitted activation curve of enough size with the parental cells flat; inconclusive = any curve in the parental cells; inactive = parental cells flat and receptor cells flat or falling; note: potency is the fitted concentration of half-maximal effect; % of control where 0% means no effect; weak receptor curves with flat parental cells got no call and are not listed
# Target sequence (P16473 whole entry, looked up): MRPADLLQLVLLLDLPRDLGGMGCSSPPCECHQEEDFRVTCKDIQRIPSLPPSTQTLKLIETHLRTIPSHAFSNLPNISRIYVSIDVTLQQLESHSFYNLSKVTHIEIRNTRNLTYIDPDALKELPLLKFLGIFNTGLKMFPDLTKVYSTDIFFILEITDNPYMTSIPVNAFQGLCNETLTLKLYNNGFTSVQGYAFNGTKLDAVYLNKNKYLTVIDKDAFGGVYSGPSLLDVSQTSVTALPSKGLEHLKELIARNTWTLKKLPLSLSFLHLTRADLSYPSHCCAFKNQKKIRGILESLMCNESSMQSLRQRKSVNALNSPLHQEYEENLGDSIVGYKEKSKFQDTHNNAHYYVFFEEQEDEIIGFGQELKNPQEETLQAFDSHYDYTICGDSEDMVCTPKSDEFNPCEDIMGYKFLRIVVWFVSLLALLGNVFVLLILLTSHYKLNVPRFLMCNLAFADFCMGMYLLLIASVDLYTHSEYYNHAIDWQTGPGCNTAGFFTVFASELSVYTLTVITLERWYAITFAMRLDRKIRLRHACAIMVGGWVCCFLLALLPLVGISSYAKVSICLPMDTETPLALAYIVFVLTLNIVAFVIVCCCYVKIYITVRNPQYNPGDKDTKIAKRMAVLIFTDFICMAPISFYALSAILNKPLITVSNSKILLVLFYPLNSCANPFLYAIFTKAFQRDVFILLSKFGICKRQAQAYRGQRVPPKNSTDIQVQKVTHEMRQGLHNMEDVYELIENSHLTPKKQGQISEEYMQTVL
#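 HEK 293 cells stably expressing TSHR and a cAMP-gated CNG channel; parental CNG-only cells as counterscreen. Cells preloaded 60 min with membrane potential dye plus 100 uM RO 20-1724, then compound 30 min; fluorescence read at 590 nm.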
# Active calls of the source: *; i = inactive; ? = inconclusive; / = no result given; & = joins results of further samples; [ ] = another dose, or the depositor's remark. Not all compounds are listed; count on the stated rates, not on these rows.
SMILES,A647 autofl,Resorufin fluor,AID923,A488 autofl,TSHR agonist
CCCc1nn(C)c2c1C(c1cccnc1)C(C#N)=C(N)O2 (configuration not stated),2.2e-08,i,/,i,/
O=c1ccc2cc(S(=O)(=O)N3CCOCC3)ccc2o1,1e-09,i,0.5%,i,8%
CCC(c1nnnn1C(C)(C)C)N(CCOC)Cc1cc2cccc(C)c2n2nnnc12 (configuration not stated),1.5e-08,i,0.1%,i,0%
CCC(=O)Nc1cc2c(cc1C(=O)c1ccccc1)OCCO2,4.5e-09,i,0.5%,i,2%
COC(=O)c1cccc(C(=O)Nc2ccc(C)cc2)n1,4.6e-08,i,-0.3%,i,-6%
Cn1c(=O)c(CCc2ccccc2)nc2cnc(OCc3ccccc3)nc21,1e-09,i,3.9%,i,?
COc1cccc(NC(=O)c2nc3ncccn3n2)c1,1e-09,i,2.5%,i,-5%
CCCOc1ccc(C(=O)C(c2ccccc2)N2CCOCC2)cc1 (configuration not stated),2.9e-08,i,1.3%,i,?
O=C(O)Cc1ccc(NC(=O)C2CCCCC2C(=O)O)cc1 (configuration not stated),/,/,-1.6%,/,2%
COc1ccc(C/C(N)=N/n2cnnc2)cc1Cl,/,/,-2.4%,/,-6%[11.4 µM]
COC(=O)c1cc(=O)nc2sc(-c3ccccc3)nn12,6.5e-09,i,0.1%,i,-10%
O=C(CCc1ccccc1)Nc1nc2n(n1)C(c1ccccc1)CC(=O)N2 (configuration not stated),2.8e-08,i,-1.3%,i,5%
CC1(C2(O)CC(c3ccccc3)ON2)CCCCC1 (configuration not stated),1e-09,i,/,i,/
COc1cc(CO)cc(Br)c1OCC(=O)N1CCCCC1,2.9e-08,i,-1.1%,i,8%
CC1(C)CC(CCC(=O)Nc2ccc(S(N)(=O)=O)cc2)C(=O)O1 (configuration not stated),4.6e-09,i,-1.2%,i,2%
NC(=O)c1ccc(-n2nnnc2Oc2ccccc2)cc1,2.5e-09,i,-0.4%,i,11%
Cc1c(NC(=O)C2CC(c3c(F)cccc3Cl)=NO2)c(=O)n(-c2ccccc2)n1C (configuration not stated),1.4e-08,i,0.7%,i,-5%
O=C(O)COc1ccc(-c2nnn(CC(=O)O)n2)cc1,1e-09,i,-0.4%,i,10%
Cc1ccc(NC(=O)c2noc3c2CCCCC3)cc1C,1.6e-09,i,-0.8%,i,?
O=C(Cn1cnc2ccccc2c1=O)NCCC(=O)Nc1ccc2c(c1)OCCO2,1.5e-08,i,1.2%,i,-2%
CCOc1ccccc1NC(=O)Cn1c(C)cc(COC)c(C#N)c1=O,2.8e-08,i,0.6%,i,-6%
CCOC(=O)C1=C(C)Nc2nc(C)nn2C1c1ccc(OC)c(OC)c1 (configuration not stated),/,/,1.9%,/,?
Cc1ccc(-c2cc(C(F)F)n3ncc(C(=O)N4CCN5CCCC5C4)c3n2)cc1 (configuration not stated),2.7e-08,i,3.6%,i,?
CCOCCn1c(SCc2c(F)cccc2Cl)nc2c1c(=O)[nH]c(=O)n2C,9.5e-08,i,/,i,/
CCOCCn1c(N(C)Cc2ccccc2)nc2c1c(=O)[nH]c(=O)n2C,3.4e-08,i,1.0%,i,2%

# Random excerpt: 7 entries already listed
SMILES,A647 autofl,Resorufin fluor,AID923,A488 autofl,TSHR agonist
CCOCCn1c(N(C)Cc2ccccc2)nc2c1c(=O)[nH]c(=O)n2C,3.4e-08,i,1.0%,i,2%
Cc1ccc(-c2cc(C(F)F)n3ncc(C(=O)N4CCN5CCCC5C4)c3n2)cc1 (configuration not stated),2.7e-08,i,3.6%,i,?
CCC(c1nnnn1C(C)(C)C)N(CCOC)Cc1cc2cccc(C)c2n2nnnc12 (configuration not stated),1.5e-08,i,0.1%,i,0%
CCOC(=O)C1=C(C)Nc2nc(C)nn2C1c1ccc(OC)c(OC)c1 (configuration not stated),/,/,1.9%,/,?
O=C(CCc1ccccc1)Nc1nc2n(n1)C(c1ccccc1)CC(=O)N2 (configuration not stated),2.8e-08,i,-1.3%,i,5%
CCOCCn1c(SCc2c(F)cccc2Cl)nc2c1c(=O)[nH]c(=O)n2C,9.5e-08,i,/,i,/
O=C(Cn1cnc2ccccc2c1=O)NCCC(=O)Nc1ccc2c(c1)OCCO2,1.5e-08,i,1.2%,i,-2%

# Other results follow:
SMILES,A647 autofl,Resorufin fluor,AID923,A488 autofl,TSHR agonist
O=C(CSCc1ccccc1)NC1CCSC1=O (configuration not stated),4e-08,i,0.9%,i,7%
O=C(NCCO)c1ccc2[nH]c3c(c2c1)CCCC3,/,/,15%,/,6%
COc1cccc(C2CC(c3ccccc3Cl)Nc3ncnn32)c1 (configuration not stated),1e-09,i,-1.7%,i,10%
CC(=O)OC[C@@H]1O[C@H](C/C=N\OC[C@@H](C)[C@H](OCc2ccccc2)C(C)C)C=C[C@@H]1OC(C)=O,/,/,-0.5%[11.5 µM],/,?
CCN1CCN(C(=O)C2CCN(Cc3nc(-c4ccc(Cl)cc4)oc3C)CC2)CC1,/,/,1.2%,/,9%
COc1ccc(-n2c(COc3ccc(C)cc3)nnc2SCC(N)=O)cc1,2.7e-08,i,-1.3%,i,8%
CCn1cc(C(=O)NCc2ccc(OC)cc2OC)c(=O)c2ccc(C)nc21,3e-09,i,1.1%,i,-1%
CCCn1c2c(c(O)c(C(=O)NC)c1=O)CCCC2,4.7e-09,i,-0.7%,i,/
O=C(NCc1ccco1)c1ccc2snnc2c1,/,/,0.0%,/,5%
CCOC(=O)c1ccc(S(=O)(=O)N2CCN(CC(=O)NC(=O)NC3CCCCC3)CC2)cc1,1e-08,i,-2.0%,i,-2%
CSc1ccccc1NC(=O)C1CCCO1 (configuration not stated),/,/,5.7%,/,5%
COc1c(Br)cc2c(C)c(C(=O)N3CCOCC3)oc2c1Br,/,/,1.2%,/,?
CCC(C)N1C(=O)c2ccccc2C1C(=O)NC1CCCCCC1 (configuration not stated),3e-09,i,2.7%,i,?
CC(=O)Nc1nnc(S(N)(=O)=O)s1,3.6e-08&6.8e-09&3.4e-08,i,4.3%,i,3%[25.6 µM]
Cc1cnc(C(=O)Nc2ccccc2-c2nnn(CC(=O)NC3CCCC3)n2)cn1,1e-09,i,-0.4%,i,-8%
Nc1cc([N+](=O)[O-])ccc1O,/,/,1.1%,/,-3%
O=C1[C@H]2O[C@@H]2[C@@H](O)[C@H]2[C@H]1CCn1c(=O)n(Cc3cc4c(cc3Cl)OCO4)c(=O)n12,/,/,-2.9%[11.5 µM],/,0%[11.4 µM]
C=CCSc1nnc(-c2c[nH]c3ccccc23)n1CCOC,1.2e-09,i,0.8%,i,29%
CCCOc1cccc(C2/C(=C(/O)c3ccccc3)C(=O)C(=O)N2CCN(C)C)c1 (configuration not stated),4.8e-09,i,/,i,/
FC(F)(F)c1cccc(NCc2cn3cccnc3n2)c1,1e-09,i,0.7%,i,-2%
Cc1ccc(C(=O)Nc2ccccc2C(N)=O)o1,1.6e-08,i,1.7%,i,1%
Cc1nc2cnc(N3CCNCC3)nc2n(C2CC2)c1=O,6.8e-09,i,?,i,0%
CCOC(=O)CSCC(=O)Nc1cc(C)ccc1C,6.1e-09,i,-0.2%,i,-2%
Nc1ncnc2c1nc(-c1ccccc1)n2[C@H]1O[C@@H](CO)[C@@H](O)[C@H]1O,1e-09,i,1.2%[11.5 µM],i,6%[11.4 µM]
CCc1nnc(NC(=O)CSc2nnc(CCc3nc4ccccc4[nH]3)n2C)s1,1e-09,i,0.8%,i,6%
SMILES,A647 autofl,Resorufin fluor,AID923,A488 autofl,TSHR agonist
CCCc1cc(=O)[nH]c(=S)[nH]1,1e-09&1.2e-09,i,2.1%,i,?
COc1ccc(C)cc1NC(=O)CCC(=O)Nc1ccc2nc(N3CCN(C)CC3)cc(C)c2c1,4.9e-09,i,-1.5%,i,-8%
CCCC(=O)n1nc(-c2ccc(Cl)cc2)nc1SC,3.2e-08,i,-0.5%,i,6%
C[C@@H](CCCCC(=O)Nc1ccc(C(F)(F)F)cc1)NCCc1cnc[nH]1,/,/,0.4%,/,-2%
CCN(CCCNS(=O)(=O)c1ccc2c(c1)CCN2C(C)=O)c1cccc(C)c1,/,/,0.4%,/,28%
O=C(c1ccccc1F)N1CCC(O)(c2cccnc2)CC1,1e-09,i,1.9%,i,-6%
CCC(=O)/C=C1\Sc2ccc(OC)cc2N1CC,/,/,0.4%,/,4%[11.4 µM]
COc1ccc(C(c2nnnn2C(C)(C)C)N2CCN(c3nc4ccccc4s3)CC2)cc1OC (configuration not stated),2.6e-08,i,-2.5%,i,?
O=C1N(CCCN2C(=O)C3(OCCO3)c3ccccc32)c2ccccc2C12OCCO2,6.2e-09,i,-1.7%,i,13%
COc1ccc(Cl)cc1Nc1nc(N2CCCC2)nc(N2CCCC2)n1,/,/,-1.2%,/,0%[11.4 µM]
COc1ccccc1NC(=O)C1=C(C)Nc2nnnn2C1c1ccncc1 (configuration not stated),8.6e-09,i,1.5%,i,2%
Cc1ccc(CNC(=O)c2cc3c(=O)n4ccccc4nc3n(CC3CCCO3)c2=N)cc1 (configuration not stated),1e-09,i,/,i,/
CCOc1ccc(N=NS(=O)(=O)O)cc1,6.4e-09,i,5.7%[11.5 µM],i,-6%[11.4 µM]
Cc1n[nH]c(C)c1S(=O)(=O)N(CC(=O)NC1CCCC1)c1ccc(C(C)C)cc1,/,/,-1.9%,/,15%
CCc1nnc(NC(=O)CN2CCN(c3ccccc3OC)CC2)s1,3.6e-09,i,0.1%,i,-3%
O=C(Cn1c(=O)oc2cc(S(=O)(=O)N3CCCCCC3)ccc21)NC1CCCCC1,/,/,0.0%,/,2%
Cc1cccc(C(=O)c2ccccc2C(=O)O)c1O,1e-09,i,-0.7%,i,-7%[11.4 µM]
O=C(O)CCCC(=O)Nc1ccc(C(=O)N2CCCCC2)c(Cl)c1,1.1e-08,i,-0.6%,i,1%
O=C1CCCC=C1[C@H](CCc1ccccc1)OC(=O)c1ccc(Br)cc1,/,/,-1.7%[11.5 µM],/,11%[11.4 µM]
CN(CCCNC(=O)COc1cc(=O)n(C)c2ccccc12)Cc1ccccc1,1e-09,i,0.7%,i,3%[11.4 µM]
COC(=O)[C@H]1C[C@@H]1[C@H](N)c1ccccc1,/,/,0.6%,/,-1%
CCOC(=O)N1CCN(C(=O)CSc2nnc(CNC(=O)c3ccccc3F)o2)CC1,1e-09,i,-1.1%,i,5%[11.4 µM]
CCCCC1CCC(C(=O)NC2CCS(=O)(=O)C2)CC1 (configuration not stated),7.9e-09,i,-1.8%,i,-1%
Cc1cc2c(=O)n(Cc3ccco3)c(SCC(=O)N3CCCc4ccccc43)nc2s1,1e-08,i,0.6%,i,?
COc1ccc2nc(SCC(N)=O)cc(C)c2c1,3.4e-09,i,-1.6%,i,-1%
SMILES,A647 autofl,Resorufin fluor,AID923,A488 autofl,TSHR agonist
O=C(Nc1cccc(F)c1)N1CC=C(n2c(=O)[nH]c3ccccc32)CC1,2.5e-08,i,1.1%,i,-8%
O=S(=O)(O)CCCc1cccc2ccccc12,2.2e-08,i,0.6%[11.5 µM],i,8%[11.4 µM]
Cc1nnc(NC(=O)CSc2nnnn2Cc2ccccc2)s1,6.5e-08,i,0.0%,i,1%
c1ccc2c3c(cc(N4CCOCC4)c2c1)OC1(N2CCOCC2)CCCCC1O3 (configuration not stated),1e-09,i,-2.0%,i,/
CCOC(=O)c1ccc(N2C(=O)CC(N3CCOCC3)C2=O)cc1 (configuration not stated),1.3e-08,i,-0.8%,i,3%
C=CCn1sc(=N)c(C#N)c1N,7.1e-09,i,4.4%,i,3%
CCn1nnc(NC(=O)c2cc(Cl)c(OC)c(Cl)c2)n1,2.6e-08,i,1.2%,i,2%
Cc1sc2ncnc(Sc3nnnn3-c3ccccc3)c2c1C,3.2e-08,i,-1.0%,i,?
